# Screening data: PubChem, ICCB-Longwood Screening Facility, Harvard Medical School
# Mtb MenB inh: inhibitors of Mycobacterium tuberculosis MenB enzyme; P9WNP5; MenB enzyme assay, absorbance read-out; some hits fall short of the stated cut; inhibition, %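 (about 12 µg/mL by stock and volumes)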; actives 0.43% (n = 100,000); AID 540299;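 active means mean of two replicates above 30%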;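 further: 0% = no compound and 100% = wells with inactive enzyme; the first replicate is given; strong numbers were not always called active; inactives centre near -10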
# Target sequence (P9WNP5 whole entry, looked up): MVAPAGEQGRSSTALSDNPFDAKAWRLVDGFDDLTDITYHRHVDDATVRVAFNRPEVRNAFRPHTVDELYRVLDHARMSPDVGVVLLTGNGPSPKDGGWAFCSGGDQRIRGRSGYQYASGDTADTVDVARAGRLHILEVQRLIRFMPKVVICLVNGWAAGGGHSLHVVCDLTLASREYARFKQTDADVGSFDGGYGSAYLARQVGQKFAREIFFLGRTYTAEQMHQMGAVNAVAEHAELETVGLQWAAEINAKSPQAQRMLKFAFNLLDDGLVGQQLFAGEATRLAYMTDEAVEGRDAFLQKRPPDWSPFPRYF
# Polio RdRp inh: inhibitors of poliovirus RNA polymerase binding and polymerization | poliovirus polymerase elongation, fluorescence polarization; hits give low values | % elongation, % (compound at 16.7 µg/mL) | actives 0.66% (n = 150,000) | AID 588519; in the data active means % elongation below about 90%; further: some results filed as inactive read as strong as hits
# MbtI inh: inhibitors of Mycobacterium tuberculosis siderophore enzyme MbtI | P9WFX0 | purified MbtI enzyme, fluorescence intensity read-out | inhibition, %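 (about 17 µg/mL by stock and volumes)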 | actives 0.89% (n = 100,000);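 active means above 50% in both replicates, above 80% if mildly self-fluorescent; inactive means the rest, strongly fluorescent compounds included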;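 further: 0% = mean of negative and 100% = mean of positive controls; one replicate is shown; some compounds called inactive have numbers as strong as hits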
# Target sequence (P9WFX0 whole entry, looked up): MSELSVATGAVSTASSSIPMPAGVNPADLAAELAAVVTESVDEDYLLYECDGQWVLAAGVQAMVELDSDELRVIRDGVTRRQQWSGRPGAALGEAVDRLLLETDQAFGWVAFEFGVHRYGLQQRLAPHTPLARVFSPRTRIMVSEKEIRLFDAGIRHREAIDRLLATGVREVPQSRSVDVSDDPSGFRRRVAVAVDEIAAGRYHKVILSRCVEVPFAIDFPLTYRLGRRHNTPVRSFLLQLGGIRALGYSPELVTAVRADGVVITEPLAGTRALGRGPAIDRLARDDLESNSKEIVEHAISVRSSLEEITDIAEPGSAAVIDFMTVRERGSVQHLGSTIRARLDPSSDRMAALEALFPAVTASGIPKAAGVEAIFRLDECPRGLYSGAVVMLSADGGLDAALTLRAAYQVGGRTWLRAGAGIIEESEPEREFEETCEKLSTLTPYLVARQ
# Polio RdRp inh intensity: also measured in Polio RdRp inh; calls as there; % elongation; measured here: total intensity read-out; formula for this scale not given here;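 total fluorescence in place of polarization; lower means less elongation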
# Active calls of the source: *; · = no result given.
# Preview (3 entries):
entry	Molecule	Mtb MenB inh	Polio RdRp inh	Polio RdRp inh intensity	MbtI inh
1	COc1ccc(Nc2cc(C)c3cc(NC(=O)c4ccc(OC)cc4)ccc3n2)cc1	-77	104	103	-332
2	CC(/C=C/c1ccc[n+](C)c1)=C\C(=O)O	-14	101	101	86
3	CCN(CC)C(=O)C1CCCN1 (stereo not given)	-31	104	97	-5

# Results (from the top)
entry	Molecule	Mtb MenB inh	Polio RdRp inh	Polio RdRp inh intensity	MbtI inh
1	COc1ccc(Nc2cc(C)c3cc(NC(=O)c4ccc(OC)cc4)ccc3n2)cc1	-77	104	103	-332
2	CC(/C=C/c1ccc[n+](C)c1)=C\C(=O)O	-14	101	101	86
3	CCN(CC)C(=O)C1CCCN1 (stereo not given)	-31	104	97	-5
4	N#CCC(=O)NC(=O)Nc1ccc(F)cc1F	-45	108	110	-9
5	FC(F)(F)c1ccnc(SCn2c(=S)sc3ccccc32)n1	11	103	104	14
6	CCc1ccc(NC(=O)C(C)OC(=O)c2ccc3c(c2)OCO3)cc1 (stereo not given)	-7	103	108	12
7	O=c1cc[nH]c2cc(N3CCOCC3)c(F)cc12	-11	104	110	·
8	Nc1ccccc1-c1nnn(CC(=O)Nc2ccccc2)n1	-24	105	103	-10
9	Cn1c(=O)c2ccccc2n2c(COC(=O)C3(Cc4nc5ccccc5s4)CCCCC3)nnc12	-3	110	110	8
10	Nc1ncnc2nc(N3CCCCC3)[nH]c12	-16	107	109	·
11	CCOC(=O)c1c(CSc2ccccc2)oc2ccc(O)c(CN(C)C)c12	-17	98	104	·
12	CCCc1cc(=O)[nH]c(SC)n1	-18	103	106	10
13	O=C(NC1CCC(C(F)(F)F)OC1=O)c1ccccc1 (stereo not given)	5	100	105	-9
14	CC(C)(C)C(=O)CSC1=NCCS1	·	103	106	1
15	CSc1ncc2c(c1C#N)CCCC2	-2	102	104	-14
16	COC(=O)c1[nH]c2c(c1C)C(=O)CC(c1ccccc1)C2 (stereo not given)	-18	102	107	-9
17	CCOC(=O)C1CCCN(c2c3c(nc4cc(-c5ccc(F)cc5)nn24)CCCC3)C1 (stereo not given)	-10	101	100	6
18	CC1CCCC(NC(=O)CSCc2cnn(-c3ccccc3)c2-n2cccc2)C1C (stereo not given)	-18	104	103	3
19	O=C(COC(=O)/C=C/c1ccc(I)o1)CN1CCN(C(=O)c2ccco2)CC1	0	102	106	28
20	Cc1ccsc1CNn1nnnc1N	-10	101	106	-1
21	CCCCN(Cc1ccco1)C(=O)c1cc2c(=O)n(CC)c3ccccc3c2s1	-5	101	105	-2
22	O=C(O)CSC1=NCCS1	-16	101	101	-2
23	COc1ccc(S(=O)(=O)n2ccnc2)cc1C	10	103	102	3
24	NCc1ccoc1C(=O)O	5	100	103	-3
25	Cc1ccc(S(=O)(=O)N2CCCC3(CCCCC3)C2)cc1	-26	102	104	-10
26	CN=c1scc(-c2ccc(OC)cc2)n1/N=C(\C)c1cccnc1	-14	107	101	-9
27	Cc1occc1-c1nnc(SC(C)C(=O)NC(C)c2ccc(Cl)cc2Cl)n1C (stereo not given)	-1	102	103	-6
28	O=C(NCCc1ccccc1)C1CCN(c2cnccn2)CC1	6	101	101	43
29	C=CCn1c(=N)c(C#N)cc2c(=O)n3cccc(C)c3nc21	-25	102	102	36
30	COc1ccc(OCC(=O)N2CCN(S(C)(=O)=O)CC2)cc1	-26	103	102	-4
31	O=C(NCCN1CCOCC1)c1cc2ccc3cccnc3c2[nH]1	-21	100	101	-16
32	O=C(O)C12CC3CC(CC(S)(C3)C1)C2	-43	104	103	-8
33	N#Cc1ccccc1OCC(=O)Nc1ccc2c(c1)OCCO2	-23	104	103	-4
34	COc1ccc(/C=C/C(=O)Nc2ccncc2)cc1OC	·	104	105	-90
35	Cc1cccc(S(=O)(=O)NCc2cccc(C(F)(F)F)c2)c1	-14	103	107	-6
36	CC1(C)C2CCC1(CS(=O)(=O)n1cnc3ccccc31)C(=O)C2 (stereo not given)	14	101	102	-2
37	CC(C)c1ccc2nc(Nc3nc4ccc(S(C)(=O)=O)cc4s3)sc2c1	-45	102	106	99
38	O=C(CCN1C(=O)c2cccnc2Sc2ccccc21)N1CCc2ccccc21	15	101	104	-17
39	COc1ccc(-n2cc(C(=O)NCCOc3cccc(-n4cnnn4)c3)nn2)cc1	-5	102	103	-3
40	Cc1ccc(Cn2nc(C)c(/C=N/N3CCOCC3)c2C)cc1	-5	105	109	-5
41	O=S(=O)(NC1CCCCC1NS(=O)(=O)c1ccc(F)cc1)c1ccc(F)cc1 (stereo not given)	-5	105	103	-3
42	CC12COC3(C(=O)Nc4ccccc4)CC1CCC32C (stereo not given)	58*	100	102	0
43	COc1ccc(COCC(O)CS(=O)(=O)Cc2ccc(C)cc2)cc1 (stereo not given)	-5	103	108	-8
44	O=C(c1ccc(COc2c(F)c(F)c(F)c(F)c2F)o1)N1CCOCC1	-8	105	107	·
45	N#Cc1c(N)n(-c2ccc(O)cc2)c2nc3ccccc3nc12	-40	100	104	-33
46	O=C(CCc1c[nH]c2ccccc12)N/N=C/c1ccccc1O	-23	99	103	34
47	CCOC(=O)Nc1cccn(Cc2ccccc2F)c1=O	0	101	103	-138
48	Cc1ccc2c(c1)N(C(=O)CCC(=O)NC1CCCC1)CCO2	3	101	102	-8
49	O=C(C(Cc1ccccc1)N1C(=O)C2C3C=CC(C3)C2C1=O)N1CCOCC1 (stereo not given)	6	95	103	·
50	CCOc1ccc(OCCCC(=O)O)cc1	·	103	107	-3
51	Cc1ccc(OCC(=O)Nc2ccc(S(=O)(=O)N3CCCC3)cc2)cc1	-14	106	103	·
52	O=C(NC1CCCC1)c1cc(=O)[nH]c2ccc(Br)cc12	8	100	103	12
53	O=C1c2ccccc2S(=O)(=O)N1CC(O)Cn1c2ccccc2c2ccccc21 (stereo not given)	-24	102	106	2
54	COc1ccc(OCCC(=O)OCc2c(C)noc2C)cc1	8	100	106	7
55	Clc1ccc2oc(-c3ccccc3)nc2c1	-34	105	104	5
56	COc1ccc(CC(=O)N2c3ccccc3Sc3ccccc32)cc1OC	-18	102	101	8
57	Cc1ccc(S(=O)(=O)N2CCN(c3ccccc3)CC2)s1	-30	101	87	-30
58	CCOC(=O)CN1CCN(C=O)CC1	2	108	108	·
59	Oc1ccccc1C1OC2CCCCC2C2=CCCCC21 (stereo not given)	-10	100	102	8
60	O=C(CN1C(=O)c2ccccc2C1=O)Nc1ccccc1C(=O)N1CCCC1	0	93	91	-3

# Carrying on.
# Letters: A = Mtb MenB inh; B = Polio RdRp inh; C = Polio RdRp inh intensity; D = MbtI inh
61. COc1cc(CNc2ccc3[nH]c(=O)[nH]c3c2)cc(Br)c1OCC(=O)NC(C)(C)C
  A: -2	B: 100	C: 100	D: 1

62. Cc1ccc2c(c1)C1CN(C)CCC1N2C(=S)Nc1cccnc1 (stereo not given)
  A: -15	B: 101	C: 105	D: 15

63. Cc1ccc(C(=O)NCC(=O)NC2CC2)cc1
  A: 2	B: 101	C: 104	D: 5

64. CC[C@H]1OC(=O)C[C@@H](O)[C@H](C)[C@@H](O[C@@H]2O[C@H](C)[C@@H](O[C@H]3C[C@@](C)(O)[C@@H](O)[C@H](C)O3)[C@H](N(C)C)[C@H]2O)[C@@H](CC=O)C[C@@H](C)C(=O)/C=C/C(C)=C/[C@@H]1CO[C@@H]1O[C@H](C)[C@@H](O)[C@@H](OC)[C@H]1OC
  A: -6	B: 97	C: 100	D: -4

65. COc1ccc(N2CCN(C(=O)COc3cc(=O)n(C)c4ccccc34)CC2)cc1
  A: -29	B: 102	C: 103	D: -5

66. CCC(=O)Nc1cccc(-c2ccc(N3CCC(C)CC3)nn2)c1
  A: -7	B: 104	C: 103	D: 12

67. O=C(NC(O)C(=O)c1ccccc1)c1ccccn1 (stereo not given)
  A: ·	B: 102	C: 102	D: -8

68. Cc1ccc(CSc2nc3ccc(C(=O)NCCN4CCCC4)cc3n2C)cc1
  A: 10	B: 103	C: 98	D: 14

69. NS(=O)(=O)c1ccc(CCNc2nc3c(-c4ccc(Cl)cc4)nnn3c3ccccc23)cc1
  A: -1	B: 100	C: 99	D: 13

70. CNC(=O)CSc1ccc(Cl)cc1
  A: -1	B: 108	C: 106	D: ·

# Arranged by formula weight (descending): part of the list above
# Letters: A = Mtb MenB inh; B = Polio RdRp inh; C = Polio RdRp inh intensity; D = MbtI inh
65. COc1ccc(N2CCN(C(=O)COc3cc(=O)n(C)c4ccccc34)CC2)cc1
  A: -29	B: 102	C: 103	D: -5

66. CCC(=O)Nc1cccc(-c2ccc(N3CCC(C)CC3)nn2)c1
  A: -7	B: 104	C: 103	D: 12

63. Cc1ccc(C(=O)NCC(=O)NC2CC2)cc1
  A: 2	B: 101	C: 104	D: 5

70. CNC(=O)CSc1ccc(Cl)cc1
  A: -1	B: 108	C: 106	D: ·

# Given with values under each structure: entries from further up.
# Sequence of screens: Mtb MenB inh | Polio RdRp inh | Polio RdRp inh intensity | MbtI inh
41) O=S(=O)(NC1CCCCC1NS(=O)(=O)c1ccc(F)cc1)c1ccc(F)cc1 (stereo not given)
→ -5 | 105 | 103 | -3
63) Cc1ccc(C(=O)NCC(=O)NC2CC2)cc1
→ 2 | 101 | 104 | 5
61) COc1cc(CNc2ccc3[nH]c(=O)[nH]c3c2)cc(Br)c1OCC(=O)NC(C)(C)C
→ -2 | 100 | 100 | 1
39) COc1ccc(-n2cc(C(=O)NCCOc3cccc(-n4cnnn4)c3)nn2)cc1
→ -5 | 102 | 103 | -3
20) Cc1ccsc1CNn1nnnc1N
→ -10 | 101 | 106 | -1

# More results follow.
# Letters: A = Mtb MenB inh; B = Polio RdRp inh; C = Polio RdRp inh intensity; D = MbtI inh
71. COc1ccc(C2=NC(=O)/C(=C\c3cc(OC)c(OC)c(OC)c3)O2)cc1
  A: -21	B: 101	C: 107	D: -10

72. Nc1nc(=S)c2[nH]cnc2[nH]1
  A: 4	B: 100	C: 102	D: 4

73. CC1C/C(=N/Nc2nc3ccccc3[nH]2)CC(C)(C)C1 (stereo not given)
  A: 8	B: 103	C: 99	D: -2

74. Clc1ccc(OCCN2CCN(c3nc4ccccc4c4nc(-c5ccncc5)nn34)CC2)cc1
  A: 13	B: 101	C: 103	D: 6

75. CCOC(=O)c1nnn2c1nc(N1CCN(c3ccccc3)CC1)c1ccccc12
  A: 17	B: 98	C: 101	D: -4

76. CSc1nc(CN2CCN(S(=O)(=O)Cc3ccccc3)CC2)cc(=O)[nH]1
  A: 2	B: 105	C: 107	D: -9

77. CCOC(=O)CNc1nc2ccccc2n2cnnc12
  A: -11	B: 101	C: 107	D: 26

78. N#CCC(=O)NS(=O)(=O)c1ccc(Cl)cc1
  A: 1	B: 99	C: 103	D: 1

79. O=C(c1cccs1)N1c2ccccc2C=Cc2ccccc21
  A: ·	B: 101	C: 102	D: 11

80. COCC(C)n1c(C)csc1=Nc1ccc(Cl)c(F)c1 (stereo not given)
  A: -27	B: 97	C: 87	D: -8

# Full records, looked up by structure.
# Nc1nc(=S)c2[nH]cnc2[nH]1 in the list: Mtb MenB inh: 4; Polio RdRp inh: 100; Polio RdRp inh intensity: 102; MbtI inh: 4
# CCOC(=O)CNc1nc2ccccc2n2cnnc12 in the list: Mtb MenB inh: -11; Polio RdRp inh: 101; Polio RdRp inh intensity: 107; MbtI inh: 26
# COCC(C)n1c(C)csc1=Nc1ccc(Cl)c(F)c1 (stereo not given) in the list: Mtb MenB inh: -27; Polio RdRp inh: 97; Polio RdRp inh intensity: 87; MbtI inh: -8

# The list continues.
# Letters: A = Mtb MenB inh; B = Polio RdRp inh; C = Polio RdRp inh intensity; D = MbtI inh
81. COc1cccc(CNC(=O)N2CC3CCCN3c3ccccc32)c1 (stereo not given)
  A: -2	B: 101	C: 103	D: -7

82. CN(C)S(=O)(=O)c1cccc(CSc2nnc(Cc3cccs3)n2C2CCCCC2)c1
  A: -29	B: 99	C: 99	D: -2

83. O=C(CSc1ncn[nH]1)Nc1nccs1
  A: 12	B: 100	C: 104	D: 6

84. CC(C)Cc1ccc(C(C)C(=O)N2CCN(c3ccc(C(F)(F)F)cn3)CC2)cc1 (stereo not given)
  A: -4	B: 104	C: 116	D: 38

85. CC(=O)N(C)c1ccc(N=Cc2ccc(C)o2)cc1
  A: -82	B: 102	C: 110	D: 1

86. O=C(c1ccc2c(=O)n3c(nc2c1)CCCCC3)N1CCCC1
  A: -21	B: 103	C: 97	D: -7

87. CCn1c(O)c(C=Nc2ccc(N3CCOCC3)c(Br)c2)c(=O)n(CC)c1=S
  A: -2	B: 100	C: 101	D: -22

88. CNC(=S)N/N=C/c1cc(C)ccc1C
  A: -42	B: 104	C: 90	D: 17

89. O=c1[nH]c2ccc(N=Cc3ccc(F)cc3)cc2[nH]1
  A: 22	B: 101	C: 104	D: -60

90. Nc1cc(N)nc(SCc2cccnc2)n1
  A: 19	B: 98	C: 101	D: 4

91. CC(C)c1ccc(O)cc1
  A: -19	B: 99	C: 94	D: -7
